Assay outcomes: PubChem, several laboratories
Bfl-1 A1 inh: inhibitors of the anti-apoptotic protein A1, read as caspase activation | MEF A1-2A-BIM cells, Caspase-Glo 3/7 luminescence, 3 h; percent of clofoctol response, vehicle zero | caspase activation, % (no concentration beside the values) | 330,000 tested, 0.066% active;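 active means over half of replicate activation scores above 10%, or exactly half above 10 with the replicate mean above 10; inconclusive means replicate mean below 10 yet half the replicates above 10; inactive means over half of replicates below 10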;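 further: wells of about 30 µL received 50 nL stock; many hits fall short of the cut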
LANA-H2A inh: blocks KSHV LANA binding to histone H2A/H2B. inhibition, % (test concentration not listed). cell-free LANA-H2A/H2B peptide, fluorescence polarization. 320,000 tested, 0.6% active. Q9QR71. AID 2629; in the data active means inhibition mostly above about 10%, no sharp cut-off; inactive means mostly below about 6.7%;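 further: stock transfer was 7.5 nL into about 10 µL; 0% = median of vehicle wells and 100% = median of positive control wells; one replicate is shown; the record names a cut of 25% in any replicate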
Beta cell apopt: blocks beta cell apoptosis | INS-1E cytokine-induced death, ATP luminescence, 48 h; percent of positive-control rescue, neutral wells zero | protection from apoptosis, % (concentration not given with the values) | 300,000 tested, 0.8% active | AID 435005;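 active means all replicates at 75% or more, or half of them and the mean; inconclusive means half reach 75% but not the mean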;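 further: 0% = cytokine-treated negative control wells and 100% = positive control rescue; higher means more ATP so stronger rescue from cytokine killing; wells of about 40 µL received 100 nL stock; the first replicate is given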
Calb FLC: affects C. albicans growth with fluconazole; C. albicans CaCi-2 (fluconazole-resistant clinical isolate) + fluconazole, Alamar Blue growth, 48 h; growth inhibition, % (test concentration not listed); 300,000 tested, 0.57% active;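 active means most replicates above 75%; inconclusive means exactly half above 75%; inactive means most below 75%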;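 further: all wells also contain fluconazole at 8 µg/ml as a sub-toxic cotreatment; 0% = median of DMSO wells and 100% = median of geldanamycin control wells; wells of about 8 µL received 7.5 nL stock; the first replicate is given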
AF4-AF9 inh: MLL-AF4/AF9 protein interaction inhibition. 350,000 tested, 0.47% active. AlphaScreen, biotin-AF4 peptide binding to FLAG-AF9. inhibition, % at 10 µM. P42568. AID 651704;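 active means every replicate reaching a set inhibition limit, whatever the replicate mean, cut at about 25% in these data; inconclusive means mean inhibition reaches that limit but some replicates miss it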;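 further: 0% = plate neutral control median and 100% = total signal loss; the record names both 10 and 1 µM as test concentration; the first replicate is given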
Target sequence (P42568 whole entry, looked up): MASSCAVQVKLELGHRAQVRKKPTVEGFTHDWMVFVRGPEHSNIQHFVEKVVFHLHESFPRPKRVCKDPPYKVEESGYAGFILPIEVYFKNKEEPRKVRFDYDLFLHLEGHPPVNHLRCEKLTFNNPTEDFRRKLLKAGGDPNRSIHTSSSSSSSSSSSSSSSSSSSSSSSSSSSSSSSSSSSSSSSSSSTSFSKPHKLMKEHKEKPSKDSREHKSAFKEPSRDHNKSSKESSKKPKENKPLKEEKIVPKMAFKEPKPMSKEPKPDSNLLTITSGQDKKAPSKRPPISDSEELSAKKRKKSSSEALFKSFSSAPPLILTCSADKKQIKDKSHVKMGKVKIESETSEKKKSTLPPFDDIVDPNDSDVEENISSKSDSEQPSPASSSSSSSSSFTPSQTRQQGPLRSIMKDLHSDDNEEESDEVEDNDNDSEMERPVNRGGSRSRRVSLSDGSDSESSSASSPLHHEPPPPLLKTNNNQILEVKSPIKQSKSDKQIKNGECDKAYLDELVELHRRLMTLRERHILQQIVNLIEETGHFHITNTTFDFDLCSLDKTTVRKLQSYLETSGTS
T cruzi inh: blocks replication of Trypanosoma cruzi; T. cruzi beta-gal in NIH3T3, luminescence, 90 h; inhibition, % (concentration not given with the values); 300,000 tested, 1.4% active;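 active means mean inhibition across valid replicates above about 55%, limit read from the data; inconclusive means mean below that limit but half or more replicates reach it; inactive means mean below it, under half of replicates reach it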;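 further: signal also drops with host cell toxicity which is not excluded here; 0% = plate median of DMSO wells and 100% = zero luminescence signal; higher percent means less beta-gal luminescence so fewer parasites; stock transfer was 50 nL into about 50 µL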
RanGTP-Imp inh: disruptors of Ran-importin-beta complex formation – biochemical, FRET, CFP-Ran, YFP-importin-beta, homogeneous, primary screen; inhibition, % (test concentration not listed); 300,000 tested, 1.1% active; cell-free CFP-Ran/YFP-importin-beta FRET ratio;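 active means most replicates above 15%; inconclusive means exactly half above 15%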;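 further: 0% = DMSO wells and 100% = Ran loaded with GDP instead of GTP; wells of about 40 µL received 100 nL stock; the first replicate is given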
Vif A3G: HIV-1 Vif–A3G interaction blockers – biochemical, TR-FRET, GST-Vif 1-94, biotin-A3G peptide, dose response retest, primary screen (AID 1117319). one-dose inhibition, %; IC50 in µM for titrated hits. 260,000 tested, 0.57% active. TR-FRET GST-Vif / biotin-A3G peptide binding; higher % means a stronger effect; test concentration not given here; strong numbers were not always called active;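 active means above the screen mean plus three standard deviations and confirmed in dose response; inconclusive means results disagree or hit not tested in dose response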;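 further: Vif residues 1-94 fused to GST binding biotinylated APOBEC3G peptide 110-148; 0% = full assay without inhibitor and 100% = GST in place of GST-Vif; retest series ran down from 100 µM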
Numbers without * were called inactive; ? = inconclusive; / = not tested or not shown.

SMILES | Bfl-1 A1 inh | LANA-H2A inh | Beta cell apopt | Calb FLC | AF4-AF9 inh | T cruzi inh | RanGTP-Imp inh | Vif A3G
CCn1ncc(NC(=S)NCCc2ccccc2)c1C(N)=O | -0.1 | 4.0 | -8 | -1 | -3.4 | -9 | -2.6 | 8%
CC(C)c1ccc(N(CC(=O)N2CCOCC2)S(C)(=O)=O)cc1 | -0.4 | -0.6 | -1 | 7 | -4.7 | -7 | 0.5 | -1%
Cc1cc(C(=O)CSc2nnc(-c3ccc(F)cc3)o2)c(C)n1CC1CCCO1 (stereo not given) | 0.8 | -0.5 | 1 | 1 | / | 3 | 1.1 | 12%
O=C(O)c1ccc(CSc2nnc(-c3ccncc3)n2-c2ccc(Br)cc2)cc1 | -1.0 | 1.5 | -1 | 5 | 2.4 | -7 | 3.4 | -4%
Nc1c(C(=O)Nc2ccc(Cl)c(C(=O)O)c2)sc2nc3c(cc12)CCCC3 | 0.7 | 1.2 | -8 | 1 | -2.9 | -1 | 4.0 | /
COc1ccccc1-c1c(C#N)c(SCC(=O)N2CCCC2)nc(C)c1C(N)=O | / | / | / | 10 | / | 4 | -0.1 | -6%
C/C(Cc1ccccc1)=N/NC(=O)CCCC(=O)N/N=C(/C)Cc1ccccc1 | 1.5 | 2.9 | -3 | -20 | -12 | -3 | 2.4 | -4%
O=C(CSc1nc2cc(Cl)ccc2o1)Nc1ccc(N2CCOCC2)cc1 | / | / | / | -19 | 3.2 | 1 | -2.0 | 29%
CC(NC(=O)c1ccco1)C(=O)N1CCN(S(=O)(=O)c2ccccc2C#N)CC1 (stereo not given) | 0.8 | 5.1 | 0 | / | -1.0 | / | / | -5%
Cn1nc(C(=O)NNC(=O)C(CCC(N)=O)NS(=O)(=O)c2ccc(Cl)cc2)c2ccccc2c1=O (stereo not given) | 0.9 | -0.7 | 0 | / | -0.8 | / | / | 4%
Cc1noc(C(=O)N2CC3(C)CC2CC(C)(C)C3)c1Cl (stereo not given) | 0.4 | -6.1 | -1 | 3 | 5.1 | 10 | ? | 20%
Cc1ccc(C(C)C)c(OCC#CCN2CCOCC2)c1 | 0.8 | -0.3 | / | -5 | -5.2 | 0 | -4.7 | /
O=S(=O)(c1cccs1)N1CCN(CC(O)COC2CCCc3ccccc32)CC1 (stereo not given) | 0.4 | -4.0 | -6 | -5 | / | 4 | -6.0 | 3%
NC(=O)c1cc(S(=O)(=O)N2CCc3ccccc3C2)cs1 | -0.3 | -3.5 | -2 | 3 | -7.9 | 2 | ? | -3%
O=C(CN(C(=O)c1csnn1)c1ccc(F)cc1)NCc1ccc2c(c1)OCO2 | 0.1 | 7.3 | -5 | 2 | 1.8 | 5 | 0.1 | /
COc1ccc(NC(=O)Nc2ccc(C(=O)N3CCOCC3)cc2)c(OC)c1 | -0.3 | 4.3 | 2 | -23 | / | -8 | ? | -2%
Cc1cccc(Oc2coc3cc(OC(=O)c4cccs4)ccc3c2=O)c1 | 0.5 | 4.2 | -3 | -1 | / | -4 | 3.2 | 1%
Cc1ccc(-n2c(SCC(=O)NCc3ccco3)nc3c([nH]c4ccccc43)c2=O)cc1 | -0.6 | 0.0 | 12 | 13 | -1.2 | 2 | -2.2 | 72%
O=C(c1ccoc1)N1CCCC(CO)(CCCc2ccccc2)C1 (stereo not given) | -0.3 | 0.4 | -3 | -16 | 1.0 | -11 | -2.6 | /
CC(=O)c1ccc(NC(=O)C2=CC(c3ccco3)=NS(=O)(=O)N2C)cc1 | -0.1 | -5.0 | -3 | 4 | 0.7 | -16 | -2.5 | /
O=C(CCCCCN1C(=O)c2cccc3cccc(c23)C1=O)NCCO | 0.8 | 5.1 | -3 | -2 | 1.2 | -7 | 1.1 | 7%
COc1ccc(OC)c(C(=O)CSc2nnc(Cc3cccs3)n2C)c1 | 0.8 | -0.8 | -9 | -2 | / | 14 | 1.5 | 23%
COc1ccc(Cc2nnc(NC(=O)Cn3cnc4c3c(=O)n(C)c(=O)n4C)s2)cc1OC | -0.3 | 1.8 | -10 | 7 | / | -14 | -1.8 | -6%
CC(C(=O)N1c2ccccc2CCc2ccccc21)n1nnc(-c2ccc(N(C)C)cc2)n1 (stereo not given) | -0.3 | 2.0 | 9 | 4 | / | 18 | 0.2 | 3%
Cc1ccc2c(C)c(C(=O)N3CCN(C4CCS(=O)(=O)C4)CC3)oc2c1C (stereo not given) | -0.1 | -7.7 | -1 | 15 | -1.3 | 12 | 4.9 | /
Further results follow:
SMILES | Bfl-1 A1 inh | LANA-H2A inh | Beta cell apopt | Calb FLC | AF4-AF9 inh | T cruzi inh | RanGTP-Imp inh | Vif A3G
Cn1c(C(=O)Nc2ccc3c(c2)OCCO3)cc2sccc21 | -7.6 | -0.6 | 2 | -36 | -34 | 11 | 3.6 | 1%
CCCNC(=S)N1CCN(c2nc(-c3ccc(C)cc3)cs2)CC1 | 0.1 | -2.2 | -4 | 5 | 6.2 | 3 | -2.7 | /
O=[N+]([O-])c1ccc(Cl)cc1NCC1CCCO1 (stereo not given) | 0.2 | 5.3 | 0 | 4 | -1.1 | 6 | -0.1 | 8%
COC(=O)[C@@H]1[C@H](CCc2ccccc2)NC(=O)N(Cc2ccccc2)[C@@H]1C | 0.2 | 0.6 | 2 | -5 | -16 | 1 | 2.6 | /
COC(=O)C1C(=O)C2=C(CC1C)NC(=O)CC2c1ccc(F)cc1 (stereo not given) | 0.4 | -0.7 | -4 | -10 | 0.9 | -11 | 0.0 | -4%
Cc1ccc(C(=O)NNC(=O)C(C)Oc2ccc3ccccc3c2)o1 (stereo not given) | 1.8 | 2.3 | 1 | -1 | -2.2 | -1 | -2.3 | -4%
O=C(Cn1nnc(-c2ccccc2)n1)N/N=C/c1cccc([N+](=O)[O-])c1 | -0.1 | 1.1 | -5 | 10 | / | 8 | 1.9 | 6%
O=C(CCC1CCCC1)NC1CCCCC1 | 1.5 | -5.1 | 0 | 0 | / | -18 | 0.8 | -1%
CCCN1CCC(=O)N(CCSc2ccc(NC(C)=O)cc2)CC1 | 0.1 | -2.8 | -5 | -5 | -0.5 | -10 | 5.0 | /
COc1ccccc1CCNC(=O)C(=O)NCC1OCCCN1S(=O)(=O)c1cc(C)ccc1C (stereo not given) | 0.6 | -0.1 | 32 | -3 | -0.4 | 15 | 4.4 | 7%
CCNC(=O)c1cc2ccccc2o1 | 0.1 | -3.8 | -6 | -9 | / | 7 | -1.2 | -5%
O=C(CCC(=O)c1ccc(Oc2ccccc2)cc1)Nc1ccc(Cl)cc1Cl | 2.1 | 1.1 | -2 | 8 | / | -22 | 1.2 | -32%
COc1cccc(/C=N/NC(=O)C[n+]2ccccc2)c1O | 2.8 | -4.8 | -3 | -7 | / | -36 | 2.8 | -6%
COc1cccc(C(C(=O)Nc2ccc(F)cc2)N(C(=O)Cn2nnc3ccccc32)C2CC2)c1 (stereo not given) | 1.3 | 5.8 | -4 | 17 | / | 20 | -1.1 | -2%
CCCN1Cc2cccc(C(=O)Nc3ccc(C)cc3)c2C1=O | 0.5 | 7.6 | -6 | 7 | / | 22 | -4.6 | 1%
COc1ccc(CC(=O)Nc2ccc(-c3cn4cccc(C)c4n3)cc2)cc1OC | 1.1 | -2.0 | 10 | 1 | / | 21 | 3.3 | 33%
Cc1ccc(C)c(S(=O)(=O)N2CCC3(CC2)OCCO3)c1 | 0.9 | 0.2 | 1 | 4 | -1.0 | -1 | -0.5 | /
COc1ccc(-c2nc3c([nH]2)c(=O)n(C)c(=O)n3C)c(OC)c1 | 0.8 | -1.5 | -1 | 12 | / | -2 | 0.0 | -2%
O=S(=O)(c1cccs1)N1CN(Cc2ccc(F)cc2)c2nc3ccccc3nc21 | -0.6 | 1.9 | 2 | / | / | / | / | -1%
COc1ccccc1N1C(=O)CCC1(C#N)c1ccc(Br)cc1 (stereo not given) | 0.5 | 3.7 | -1 | 15 | / | 4 | 8.3 | 3%
COc1cc(/C=N/NC(N)=O)ccc1OCC(=O)Nc1cc(C)c(C)cc1Br | 0.4 | 2.1 | 0 | 11 | -1.5 | -9 | -0.9 | -5%
CC(=O)Nc1ccc(S(=O)(=O)NC2=NCN(C)CN2)cc1 | -0.3 | -6.0 | -8 | 2 | / | -13 | 0.0 | 18%
COc1ccc(C(=O)CN2CC(C)SC2=Nc2ccc(Cl)cc2)cc1 (stereo not given) | 0.6 | -0.7 | 21 | -1 | / | 31 | 0.0 | /
COc1ccc(Cl)c2c1[nH]c1nc(SCc3ccccn3)nnc12 | 0.2 | -2.2 | / | 10 | -1.6 | 7 | -6.0 | /
O=C(CNS(=O)(=O)c1cccc(F)c1)OCC(=O)N1CCCC1=O | -0.8 | -5.1 | -3 | / | 0.4 | / | / | -1%
(listing goes on)
SMILES | Bfl-1 A1 inh | LANA-H2A inh | Beta cell apopt | Calb FLC | AF4-AF9 inh | T cruzi inh | RanGTP-Imp inh | Vif A3G
Cc1ccc(C(=O)NCC(=O)NCC(c2cccs2)N2CCOCC2)cc1 (stereo not given) | 0.6 | 3.3 | -5 | / | 4.9 | / | / | -4%
C[C@@H]1C=CC(=O)O[C@@H]1c1ccc(C(F)(F)F)cc1 | -1.6 | 5.9 | 6 | -4 | / | 4 | -0.9 | /
Cc1cc(C)n2nc(C(=O)OCC(=O)NCc3ccc(Cl)cc3)nc2n1 | 0.2 | 1.1 | -4 | / | -1.3 | / | / | /
COc1ccccc1NC(=O)COC(=O)CNC(=O)C1CCCCC1 | 0.0 | 2.3 | -5 | / | -2.6 | / | / | -11%
O=C(COC(=O)c1ccc(Br)o1)Nc1ccc2c(c1)OCCO2 | 1.5 | -1.7 | -3 | / | -0.3 | / | / | /
O=S(=O)(c1ccc(Cl)cc1)c1nc(-c2ccco2)oc1N1CCCCC1 | -1.4 | 1.0 | -4 | -10 | 5.9 | -10 | 4.2 | 5%
Cn1c(C(=O)NN)cc2cc(OCc3ccccc3)ccc21 | 0.2 | -3.0 | 1 | 3 | -4.9 | 5 | 2.4 | /
O=C(/C=C/c1ccccc1)Nc1ccc(S(=O)(=O)N2CCOCC2)cc1 | 0.1 | -5.3 | -7 | 8 | 5.7 | ? | -0.4 | /
COC(=O)c1sc2ccccc2c1NC(=O)c1coc2ccccc2c1=O | 0.8 | -0.6 | / | -4 | / | -9 | 1.6 | /
Cc1ccc(NC(=O)CCNC(=O)c2ccc(Br)cc2)cc1S(=O)(=O)N1CCOCC1 | -0.8 | / | -5 | -3 | -0.9 | 7 | 5.8 | 0%
O=C1CCC([N+](=O)[O-])C(c2ccccc2Br)N1 (stereo not given) | 1.8 | 6.6 | 1 | 2 | -16 | -2 | 0.3 | 3%
CCCC(=O)c1cc2c(cc1NC(=O)c1cccs1)OCCO2 | -0.7 | 0.8 | 0 | / | / | 21 | -2.2 | ?
CCOc1ccc(CCNC(=O)CN2C(=O)NC3(CCCCC3)C2=O)cc1OCC | 0.0 | -0.7 | / | -8 | -0.7 | 0 | -1.5 | -4%
Nc1nonc1-c1noc(CCCCCN2C(=O)c3ccccc3C2=O)n1 | 0.9 | -3.3 | -5 | / | / | / | / | -3%
CS(=O)(=O)c1ccccc1COC(=O)Nc1ccc(Cl)cc1 | -0.1 | 3.7 | 4 | 6 | / | 18 | 5.5 | 0%
